# Bioassay records (PubChem)
# NPYLR7 ag: activates Aedes aegypti NPYLR7 receptor; hit rate 0.15% among 270,000; activation, % at 10 µM; HEK293T NPYLR7/Galpha15, GCaMP6s calcium fluorescence; AID 1259423; in the data active = activation above about 40%;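 also: 0% = vehicle and 100% = reference agonist at the receptor; some compounds past the cut are filed as inactive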
# NPYLR7 ag max-min: second read-out of NPYLR7 ag, no call of its own (marks repeat the call); activation, %; measured here: Max-Min RFU normalised activation; some inactives read as strong as hits;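 span of the calcium signal over five minutes; 0% = vehicle and 100% = native peptide agonist; compound fluorescence can raise it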
# The depositor's hits bear a star; & = joins results of further samples. A portion of the library; count on the stated rates, not on these rows.
SMILES,NPYLR7 ag,NPYLR7 ag max-min
CNC(=O)[C@H]1CN(C(=O)Cc2ccccc2)[C@]2(C)C(=O)N(CCO)c3ccccc3[C@H]12,1,12
Cc1nc(N2CCN(C)CC2)ncc1C(=O)NCc1cnn2ccccc12,6,1
COc1ccc(F)c(CN2CCCC3(CCN(C(=O)CCc4n[nH]c(C)c4C)C3)C2)c1 (centres undefined),15,5
NC(=O)C1CCN(S(=O)(=O)c2ccc3[nH]cc(C(=O)O)c(=O)c3c2)CC1,0,-1
CCCc1cnc2c(c1SC(C)C(=O)O)c(=O)n(C)c(=O)n2C (centres undefined),7,7
CC(C)c1nc(C(=O)N2CCCC(C(=O)c3cccc4ccccc34)C2)cs1 (centres undefined),21,22
CCOc1ncccc1CN1CCCC(C(=O)Nc2ccc(OC)c(Cl)c2)C1 (centres undefined),-14,-21
Cc1[nH]n(-c2ccccc2)c(=O)c1C=Nc1nn[nH]n1,-13,-17
CCCCc1nc(N2CCCN(C(=O)CCl)CC2)c2c(-c3ccc4ccccc4c3)noc2n1,15,8
CCOc1ccc(-c2cn3c(CC(=O)N4CCOCC4)csc3n2)cc1,-1,-5
O=C1NCCCCC1NC(=O)C1CC1c1cccc(Br)c1 (centres undefined),9,8
CCOC(=O)C1=C(C)N=c2s/c(=C\c3ccccc3Cl)c(=O)n2C1c1ccc(N(C)C)cc1 (centres undefined),14,1
C=C(C)COc1ccccc1C(=O)NCc1nc(C)cc(=O)[nH]1,3,16
CN(C)C1=NC2(CCN(Cc3cc4n(n3)CCNC4)CC2)C(=O)N1,8,4
COc1ccc2nc(NNC(=O)c3ccc(S(=O)(=O)N4CC(C)OC(C)C4)cc3)sc2c1 (centres undefined),0,-2
CCS(=O)(=O)CCn1cc(NC(=O)CCc2ccc(C)cc2)cn1,12,11
O=C(Cn1c(=O)n(-c2ccccc2F)c(=O)c2ccc(Cl)cc21)NCc1ccco1,21,27
C#CCN(C)C(=O)c1cncn1-c1cccc(-c2ccc(OC)c(OC)c2)c1,1,2
Nc1ccc(O)c(-n2nc3ccc(N)cc3n2)c1,5,-1
Cc1cccc(C)c1NC(=O)CSc1nnc(C)n1-n1cccc1,7,6
O=C(CSc1nnc(-c2ccccc2)n1-c1ccccc1)N/N=C\c1ccccc1[N+](=O)[O-],-7,-13
CC1(C)CC(=O)c2cc3c(N)c(C(=O)Nc4ccccc4[N+](=O)[O-])sc3nc2C1,2,1
O=C(O)c1noc(-c2cc(F)ccc2F)n1,-5,-6
O=C(C1=C(O)C(=O)N(CCCN2CCOCC2)C1c1ccc(Cl)c(Cl)c1)c1cccs1 (centres undefined),-1,6
Cc1ccc(C)c(N(CC(N)=O)S(=O)(=O)N(C)C)c1,-2,-5
NC(=S)CN1C(=O)c2ccccc2S1(=O)=O,0,-2
O=C1CC(c2ccco2)Cc2nc(N3CCN(Cc4ccccc4)CC3)ncc21 (centres undefined),-3,-4
COCCN1C(=O)C2(SCCN2C(=O)C2CCCC2)c2ccccc21 (centres undefined),6,6
COc1cc(-c2nc3ccc(Br)cn3c2NC(C)(C)CC(C)(C)C)ccc1OS(=O)(=O)c1ccc(C(C)(C)C)cc1,-2,4
COc1ccc(C2=NOC(CN(Cc3cccc(Cl)c3)C(=O)C3CCCC3)C2)cc1 (centres undefined),6,9
COC(=O)c1ccccc1NC(=O)N1CC(=O)N2CCc3cc(OC)c(OC)cc3C2C1 (centres undefined),-3,1
O=C1NN=C(CS(=O)(=O)c2ccccc2)Oc2ccccc21,5,7
Cc1noc(C)c1CSc1ccccc1C(=O)Nc1ccccc1F,-1,0
COCCCNC(=O)c1c(C)noc1-c1cccc(F)c1,9,3
CCN(CC)C(=O)Oc1ccc2c(ccn2Cc2ccccc2)c1NC(=O)CCCC(=O)OC,-3,-8
CN1CC2(CCN(C(=O)c3cnc(N4CCOCC4)nc3)C2)OC1=O (centres undefined),7,3
CC(=O)c1c(C)nn(CC(=O)N2CC3C[C@@H]4CC2C[C@H](C3)C4)c1C,17,14
CCCSc1ccc2nc(NC(=O)OC)[nH]c2c1,0&6&-1,-6&-6&-3
CCOC(=O)N1CCN(C(=O)CC(c2ccc(F)cc2F)c2c[nH]c3ccccc23)CC1 (centres undefined),-1,14
CCc1nccc(-c2nccn2CCn2ccnc2)n1,0,-9
COc1ccc(CCN2CC(=O)N(c3ccc(Cl)cc3)C3CS(=O)(=O)CC32)cc1 (centres undefined),4,4
CC(C)c1ccc(-c2nnc(N)s2)cc1,7,5
O=C(CCN1C(=O)NC2(CCCC2)C1=O)NCCC1=CCCCC1,11,16
CC(=O)Nc1ccc(Cl)c(C(=O)N(C)Cc2ccc3nonc3c2)c1,-1,-4
CCc1[nH]c2ccc(CNCc3ccc(F)c(OC)c3)cc2c1C,8,-1
Cc1ccc(C(=O)Nc2ccc(SCC(=O)NCc3ccccc3)nn2)cc1,10,10
CCOc1ccc(Nc2oc(-c3ccc(S(=O)(=O)N4CCCCCC4)cc3)nc2C#N)cc1,-2,11
CC(=O)Nc1ccc(NC(=O)CN2CCCCC2)cc1,9,10
O=C(NCC1CCCN(Cc2cccc3c2OCO3)C1)c1cccs1 (centres undefined),9,0
O=C(OCc1cc(=O)oc2cc(O)ccc12)c1cnccn1,3,9
CCS(=O)(=O)Oc1cc(CN(C(=O)c2ccc(Cl)cc2)C(C)C)ccc1OC,-7,0
COC(=O)c1ccc(CSc2c(CC(C)C)cnc3c2c(=O)n(C)c(=O)n3C)o1,5,4
Cc1ccccc1C(C)(C)C(=O)NCCC(=O)N1CCCCC1,-4,-1
CCCn1c(=O)n(CCC(=O)N(Cc2cccnc2)C(C)C)c2ccccc21,5,3
CC(=O)NCCC(=O)Nc1ccc(OCc2ccccc2)cc1C,7,3
OCCC1CN(Cc2c(F)cccc2Cl)CCN1Cc1cccs1 (centres undefined),4,-3
CCOC(=O)C1CCCN(C(=O)c2ccc(CSc3nc(CC)cc(N4CCCC4)n3)cc2)C1 (centres undefined),-10,-11
CCOc1cc(/C=N\n2cnnc2)cc(Cl)c1OCc1ccccc1Cl,-10,-15
Cc1cc(C(=O)N(Cc2ccco2)c2nc3ccc(F)cc3s2)nn1C,6,0
COCCNCC(=O)N(Cc1ccc2c(c1)OCO2)Cc1ccco1,-3,5

# As a short view, some entries already given.
SMILES,NPYLR7 ag,NPYLR7 ag max-min
Cc1cc(C(=O)N(Cc2ccco2)c2nc3ccc(F)cc3s2)nn1C,6,0
COCCNCC(=O)N(Cc1ccc2c(c1)OCO2)Cc1ccco1,-3,5

# Filtered by structure, the entries above with bromine.
SMILES,NPYLR7 ag,NPYLR7 ag max-min
O=C1NCCCCC1NC(=O)C1CC1c1cccc(Br)c1 (centres undefined),9,8
COc1cc(-c2nc3ccc(Br)cn3c2NC(C)(C)CC(C)(C)C)ccc1OS(=O)(=O)c1ccc(C(C)(C)C)cc1,-2,4

# Quoted at random: 5 records from the list
SMILES,NPYLR7 ag,NPYLR7 ag max-min
Cc1ccc(C(=O)Nc2ccc(SCC(=O)NCc3ccccc3)nn2)cc1,10,10
CCCn1c(=O)n(CCC(=O)N(Cc2cccnc2)C(C)C)c2ccccc21,5,3
Cc1cc(C(=O)N(Cc2ccco2)c2nc3ccc(F)cc3s2)nn1C,6,0
CC(C)c1ccc(-c2nnc(N)s2)cc1,7,5
Cc1ccccc1C(C)(C)C(=O)NCCC(=O)N1CCCCC1,-4,-1

# (further entries)
SMILES,NPYLR7 ag,NPYLR7 ag max-min
O=C(O)CCN1C(=O)CSC1=S,1,-3
COc1ccccc1NCC(=O)NN=C1CCN(Cc2ccccc2)CC1,3,2
Cc1nn(C)c(C)c1C(=O)OCc1nc(N)nc(N(C)C)n1,0,-3
CCN(CC)CCNC(=O)c1ccc(Cl)c(S(=O)(=O)N2CCCC(C)C2)c1 (centres undefined),-3,-4
O=C(O)c1cc(Br)ccc1N=Cc1nc(-c2ccccc2)oc1O,-5,-7
CCCCCCC(=O)Nc1ccccc1C1SCC(=O)N1c1ccccc1F (centres undefined),-6,2
c1cnc(N2CCCCCCC2)c(CNCc2nc3ccccc3[nH]2)c1,15,7
COc1ccc(-c2cn3c4ccccc4nc3n2CCO)cc1,18,5
O=Cc1ccc(N2N=C(c3ccccc3)CC2c2ccccc2)cc1 (centres undefined),-6,-11
CCN1CCN(c2c(CN(CCC(C)C)C(=O)c3ccccc3OC)c(C)nn2-c2ccccc2)CC1,0,13
CC(=O)Nc1ccc(-c2csc(NC(=O)C3Cc4ccccc4O3)n2)c(F)c1 (centres undefined),-3,-3
Cc1cccc(OCC(=O)N2CCN(C(=O)COc3cccc(C)c3)CC2)c1,3,11
Nc1ccc(N=Cc2ccc3c(c2)OCCO3)cc1,18,32
O=C1C=C(/C=C/c2cccs2)C[C@H](c2cccs2)[C@H]1n1cnc([N+](=O)[O-])c1,2,-1
CC(=O)NC(Cc1ccccc1F)C(=O)N1CCN(Cc2cccc(-c3noc(-c4cccc(Cl)c4)n3)c2)CC1 (centres undefined),16,6
CNc1ncc(CN(C)Cc2cc3n(n2)CCNC3)cn1,10,6
S=C(NC1CC2CCC1C2)NN1CCOCC1 (centres undefined),4,10
O=[N+]([O-])c1ccc(N2CCNCC2)cc1NC1C2CC3CC(C2)CC1C3 (centres undefined),14,7
C=CCn1c(SCc2cccc(C(F)(F)F)c2)nnc1-c1ccc(F)cc1,-6,0
COc1cccc(C2c3[nH]c4ccccc4c3CCN2Cc2cccc3nccnc23)c1 (centres undefined),-9,-13
Fc1cccc(Oc2cc(C(F)(F)F)nc(SCc3ccccc3Cl)n2)c1,3,14
CN(CCCc1nccn1C)c1nccc(N2CCC(O)C2)n1 (centres undefined),2,1
CC1(C)CC(N2CCOCC2)=CC(=[N+]2CCOCC2)C1,5,3
CC(=O)C1=C(c2ccc(C)cc2)NC(=S)NC1c1csnn1 (centres undefined),12,10
COc1ccc2oc(=O)c(C(=O)NCc3ccco3)cc2c1,-5,-11
O=C(CC1c2ccccc2CCN1S(=O)(=O)c1ccccc1)Nc1cccnc1 (centres undefined),18,2
Cn1cnnc1SCC(=O)NCC1CCCCO1 (centres undefined),22,14
Cc1ccc(/C=C/CC(=O)N2CCN(C(=O)c3cccnc3)CC2)cc1,0,-1
C=CC(C)(O)CN(CCN1CCOCC1)Cc1nc2scc(-c3cccc(OC)c3)c2c(=O)[nH]1 (centres undefined),24,21
CC(C)Cc1ccc(-c2csc(NC(=O)C3COCCO3)n2)cc1 (centres undefined),1&-27,1&-24
Cc1ccccc1-n1cc(CN(C)C(=O)c2cn(Cc3cccc4ccccc34)nn2)cn1,3,1
CCS(=O)(=O)N(C)CCCNC(=O)c1c(Cl)c2ccccc2n1C,0,17
COc1ccc(CCNC(=O)CN2CN(c3ccccc3)C3(CCN(C(=O)c4ccc(Cl)cc4Cl)CC3)C2=O)cc1OC,-7,-5
COc1cc(-c2cc(-c3ccccc3Oc3ccccc3)cnc2N)cc(OC)c1OC,-2,-8
CCn1nc(C(C)(C)C)cc1C(=O)NCC1(N)CCCC1,10,4
O=C(c1ccc(S(=O)(=O)Nc2ccccc2F)cc1)N1CCC1,1,0
CC(=O)N1CCC(Oc2ccc(C(C)C)cc2)CC1,3,2
CC(C)c1nc(CCN(C)C(=O)c2cnn3c2CCCC3)no1,3,3
FC(F)(F)C1=Nc2ccccc2N=C(c2cccs2)C1,7,6
C(=Nc1nc2ccccc2nc1N1CCN(C(c2ccccc2)c2ccccc2)CC1)N1CCOCC1,1,2

# Look-ups from above.
# Result for CC(=O)C1=C(c2ccc(C)cc2)NC(=S)NC1c1csnn1 (centres undefined) in NPYLR7 ag max-min: 10
# Result for CC(=O)N1CCC(Oc2ccc(C(C)C)cc2)CC1 in NPYLR7 ag max-min: 2
# Result for CC(C)Cc1ccc(-c2csc(NC(=O)C3COCCO3)n2)cc1 (centres undefined) in NPYLR7 ag: 1&-27
# Result for CN(CCCc1nccn1C)c1nccc(N2CCC(O)C2)n1 (centres undefined) in NPYLR7 ag max-min: 1
# Result for C(=Nc1nc2ccccc2nc1N1CCN(C(c2ccccc2)c2ccccc2)CC1)N1CCOCC1 in NPYLR7 ag max-min: 2
# Result for Cn1cnnc1SCC(=O)NCC1CCCCO1 (centres undefined) in NPYLR7 ag max-min: 14
# Result for Cc1ccccc1-n1cc(CN(C)C(=O)c2cn(Cc3cccc4ccccc34)nn2)cn1 in NPYLR7 ag max-min: 1

# (list continues)
SMILES,NPYLR7 ag,NPYLR7 ag max-min
CCCNC(=O)N(CCN1CCOCC1)Cc1cc(Cl)ccc1OCc1nc(CO)cs1,9,18
COCCNC(=O)C(NC(=O)c1ccc2c(c1)OCO2)C1CCN(S(=O)(=O)c2ccc(OC)cc2)CC1 (centres undefined),9,12
Cc1ccc(CN(CCN2CCOCC2)Cc2ccc(C(O)(c3cccc(F)c3)c3cccc(F)c3)o2)o1,-4,5
Cc1cc(C(=O)N(CC(=O)N2CCOCC2)Cc2ccccc2)no1,21,14
COc1ccc(N2CCN(C3CCCN(C(=O)CN4CCCCCC4)C3)CC2)cc1 (centres undefined),1,1
CC(C)N(C(=O)Cn1cc(SCC(=O)NC2CCCCC2)c2ccccc21)C(C)C,-6,-11
C=CCCOC(=O)N1CC(=O)N(Cc2ccc3c(c2)OCO3)CC(O)C1 (centres undefined),1,10
O=C(C1CCCC1)N(Cc1nccn1Cc1ccc(C(F)(F)F)cc1)CC1CC1,15,8
O=C1Cc2cc(S(=O)(=O)N3CCOCC3)c(Cl)cc2N1,7,2
O=C(NC1CCCCC1)C1CCC(CNc2c(N3CCCC3)c(=O)c2=O)CC1 (centres undefined),8,5
COc1ccccc1N1C(=O)CC(N(C)Cc2c(F)cccc2Cl)C1=O (centres undefined),2,0
Cc1nc2[nH]n(C)c(=O)c2c(C)c1CC(=O)NCC(=O)OCC1CC1,8,10
COc1ccc(/C=C/C2=NC(=C\c3ccc(Cl)cc3)/C(=O)O2)cc1,36,34
Cc1ccc2nc(CN3CCC(C)CC3)cc(=O)n2c1,7,5
CCCCCCCC(=O)Nc1c(-c2cc(C)cc(C)c2)nc2cc(C)ccn12,-4,3
O=C(Nc1nc(OCCN2CCCC2=O)cnc1-c1cc(Cl)cc(Cl)c1)c1cc2ccccc2s1,-5,-11
Cc1ccc(C)c(S(=O)(=O)NCC(=O)Nc2cccc3cccnc23)c1,-4,-4
COCCN(Cc1ccc(C(O)(c2cccc(F)c2)c2cccc(F)c2)o1)Cc1ccccc1OC,-6,2
COc1ccccc1C(CC#N)c1ccc(OC(C)C)cc1 (centres undefined),1,0
